A1 inh: inhibitors of the anti-apoptotic protein A1, read as caspase activation. caspase activation, % (no concentration beside the values). MEF A1-2A-BIM cells, Caspase-Glo 3/7 luminescence, 3 h; percent of clofoctol response, vehicle zero. AID 2462. hit rate 0.066% among 330,000;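 active = over half of replicate activation scores above 10%, or exactly half above 10 with the replicate mean above 10; inconclusive = replicate mean below 10 yet half the replicates above 10; inactive = over half of replicates below 10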;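 note: wells of about 30 µL received 50 nL stock; many hits fall short of the cut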
T cruzi inh: T. cruzi replication inhibition; T. cruzi beta-gal in NIH3T3, luminescence, 90 h; inhibition, % (no concentration beside the values); hit rate 1.4% among 300,000; AID 1885;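 active = mean inhibition across valid replicates above about 55%, limit read from the data; inconclusive = mean below that limit but half or more replicates reach it; inactive = mean below it, under half of replicates reach it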;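 note: signal also drops with host cell toxicity which is not excluded here; 0% = plate median of DMSO wells and 100% = zero luminescence signal; higher percent means less beta-gal luminescence so fewer parasites; stock transfer was 50 nL into about 50 µL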
RanGTP-Imp inh: inhibitors of RanGTP-importin-beta interaction, primary screen, biochemical, FRET, CFP-Ran, YFP-importin-beta, homogeneous; cell-free CFP-Ran/YFP-importin-beta FRET ratio; inhibition, % (test concentration not listed); hit rate 1.1% among 300,000; AID 2216;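 active = most replicates above 15%; inconclusive = exactly half above 15%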;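 note: 0% = DMSO wells and 100% = Ran loaded with GDP instead of GTP; wells of about 40 µL received 100 nL stock; the first replicate is given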
LANA-H2B inh: blocks KSHV LANA binding to histone H2A/H2B | Q9QR71 | cell-free LANA-H2A/H2B peptide, fluorescence polarization | inhibition, % (concentration not given with the values) | hit rate 0.6% among 320,000; in the data active = inhibition mostly above about 10%, no sharp cut-off; inactive = mostly below about 6.7%;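 note: stock transfer was 7.5 nL into about 10 µL; 0% = median of vehicle wells and 100% = median of positive control wells; one replicate is shown; the record names a cut of 25% in any replicate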
B2AR ag: activates human beta-2 adrenergic receptor causing internalization | P07550 | Am2.2-beta2AR cells, FAP receptor internalization, flow cytometry; reference of the scale not given here | response, % (no concentration beside the values) | hit rate 0.43% among 340,000 | AID 504454;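 active = response above a set limit, near 3 SD of response in nonfluorescent compounds, cut at about 42% in these data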;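 note: stock transfer was 100 nL into about 11 µL; a reference agonist was the positive control; negative values mostly stem from fluorescent compounds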
Target sequence (P07550 whole entry, looked up): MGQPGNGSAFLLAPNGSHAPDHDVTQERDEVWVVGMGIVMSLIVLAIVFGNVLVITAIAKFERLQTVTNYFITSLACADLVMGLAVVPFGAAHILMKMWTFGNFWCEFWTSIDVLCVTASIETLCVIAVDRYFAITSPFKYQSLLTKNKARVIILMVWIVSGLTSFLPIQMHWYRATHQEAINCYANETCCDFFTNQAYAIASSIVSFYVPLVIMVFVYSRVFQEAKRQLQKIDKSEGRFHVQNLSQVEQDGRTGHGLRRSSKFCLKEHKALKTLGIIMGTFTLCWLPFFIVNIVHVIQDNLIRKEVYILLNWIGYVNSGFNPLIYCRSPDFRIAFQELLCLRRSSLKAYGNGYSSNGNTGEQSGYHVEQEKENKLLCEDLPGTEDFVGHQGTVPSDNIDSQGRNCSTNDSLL
Beta cell apopt: blocks beta cell apoptosis; hit rate 0.8% among 300,000; INS-1E cytokine-induced death, ATP luminescence, 48 h; percent of positive-control rescue, neutral wells zero; protection from apoptosis, % (concentration not given with the values);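 active = all replicates at 75% or more, or half of them and the mean; inconclusive = half reach 75% but not the mean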;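 note: 0% = cytokine-treated negative control wells and 100% = positive control rescue; higher means more ATP so stronger rescue from cytokine killing; wells of about 40 µL received 100 nL stock; the first replicate is given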
Calb FLC: C. albicans growth modulation with fluconazole; growth inhibition, % (no concentration beside the values); C. albicans CaCi-2 (fluconazole-resistant clinical isolate) + fluconazole, Alamar Blue growth, 48 h; hit rate 0.57% among 300,000;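 active = most replicates above 75%; inconclusive = exactly half above 75%; inactive = most below 75%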;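 note: all wells also contain fluconazole at 8 µg/ml as a sub-toxic cotreatment; 0% = median of DMSO wells and 100% = median of geldanamycin control wells; wells of about 8 µL received 7.5 nL stock; the first replicate is given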
UCH37 inh: human UCH37 deubiquitinating enzyme inhibition; AID 588478; purified proteasome/UCH37, Ub-AMC cleavage fluorescence; hit rate 0.33% among 330,000; Q9Y5K5; inhibition, % (no concentration beside the values);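 active = mean of two replicates above 20%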;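 note: 0% = compound-free wells with enzyme and 100% = wells lacking proteasome; stock transfer was 100 nL into about 20 µL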
Target sequence (Q9Y5K5 whole entry, looked up): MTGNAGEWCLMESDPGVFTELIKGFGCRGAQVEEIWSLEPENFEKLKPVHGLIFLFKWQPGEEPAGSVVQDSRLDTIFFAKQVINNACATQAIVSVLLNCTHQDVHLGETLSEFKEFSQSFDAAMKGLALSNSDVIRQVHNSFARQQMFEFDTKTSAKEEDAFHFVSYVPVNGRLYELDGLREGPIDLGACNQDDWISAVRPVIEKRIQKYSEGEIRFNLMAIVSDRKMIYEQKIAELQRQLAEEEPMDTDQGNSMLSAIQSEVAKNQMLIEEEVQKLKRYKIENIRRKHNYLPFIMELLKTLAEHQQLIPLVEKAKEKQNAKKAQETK
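Test system – human UCH37 enzyme supplied as purified proteasome complex · Incubation – 30 min preincubation with enzyme, 25 min cleavage at room temperature · Detection – AMC fluorescence from Ub-AMC cleavage, excitation 355 nm, emission 460 nm · Benchmarks – no-proteasome wells (full inhibition) and compound-free wells (no inhibition)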
Starred values were filed as active, the others as inactive; u = inconclusive; x = no result given.

SMILES	A1 inh	T cruzi inh	RanGTP-Imp inh	LANA-H2B inh	B2AR ag	Beta cell apopt	Calb FLC	UCH37 inh
C=CCN=C(C)C1=C(O)CCC1=O	0.4	-17	3.2	0.6	-12	-7	9	-4.6
CCOC(=O)C1=CC[C@H]2c3c(c4ccccc4n3C)C(=O)C1N2Cc1ccccc1	0.7	x	x	3.3	4	4	x	2.5
CCOC(=O)c1c(C)[nH]c(O)c1C=Nc1ccc(Cl)cc1	0.9	4	-0.2	0.7	-16	-3	7	2.3
CCOP(=O)(c1ccccc1)c1nc(-c2ccccc2C)oc1NCc1ccccc1 (stereo unspecified)	-0.3	11	-12	-1.3	1	-6	-4	-7.3
Cc1nc2ccc(Cl)cc2nc(C)/c1=N\O	-0.3	-3	8.0	0.0	-11	0	2	x
O=C(CCc1c[nH]c2ccccc12)NCCOc1ccccc1	0.4	16	-0.6	1.0	6	-2	10	1.0
CC1CCN(C(=O)c2cc(-c3ccco3)on2)CC1	0.3	8	-2.9	3.0	-13	-9	7	0.7
CC(=O)CCC(=O)c1ccc2ccccc2c1	-1.0	3	-3.0	-0.5	15	3	5	-37
Cc1ccc(OCC(=O)NCCCNC(=O)c2ccccn2)cc1	-0.4	-2	1.9	4.5	-2	5	15	0.3
CCN1CCN(C(=S)Nc2cc(C(=O)OC)ccc2C(=O)OC)CC1	2.0	-6	5.6	4.8	-9	1	6	-3.9
CCC(=O)N1CCc2cc(S(=O)(=O)CCC(=O)NCCc3ccccc3)ccc21	-0.4	1	1.9	-0.9	-6	1	9	1.6
Cc1ccc(S(=O)(=O)NCC(=O)N(CC(=O)NCC2CCCO2)Cc2ccccc2Cl)cc1 (stereo unspecified)	1.0	7	0.1	10.0	-4	0	-4	4.5
CCn1c(SCC(=O)N2CCN(c3ccccc3)CC2)nnc1-c1ccoc1C	-0.4	-13	-1.3	4.6	7	-2	-2	1.1
CC1CCN(C(=O)c2[nH]cnc2C(=O)Nc2cccc(Cl)c2)CC1	1.9	x	x	1.1	-8	-11	x	3.0
Cc1cc2cc(C#N)c(N3CCN(S(C)(=O)=O)CC3)nc2cc1C	-0.3	8	8.5	-0.7	-2	-3	-20	-43

Retrieved one by one from the entries so far, three records:
SMILES	A1 inh	T cruzi inh	RanGTP-Imp inh	LANA-H2B inh	B2AR ag	Beta cell apopt	Calb FLC	UCH37 inh
CCOC(=O)C1=CC[C@H]2c3c(c4ccccc4n3C)C(=O)C1N2Cc1ccccc1	0.7	x	x	3.3	4	4	x	2.5
CCN1CCN(C(=S)Nc2cc(C(=O)OC)ccc2C(=O)OC)CC1	2.0	-6	5.6	4.8	-9	1	6	-3.9
CCOP(=O)(c1ccccc1)c1nc(-c2ccccc2C)oc1NCc1ccccc1 (stereo unspecified)	-0.3	11	-12	-1.3	1	-6	-4	-7.3

Remaining list, next part:
SMILES	A1 inh	T cruzi inh	RanGTP-Imp inh	LANA-H2B inh	B2AR ag	Beta cell apopt	Calb FLC	UCH37 inh
COc1ccccc1NS(=O)(=O)c1cc(NC(=O)c2cccs2)ccc1N1CCCCC1	-0.2	59*	3.8	-0.3	-2	7	8	4.4
Cc1cc(Br)c2c(c1)C(O)(N1CCCCC1C)C(=O)N2 (stereo unspecified)	0.7	-1	-1.2	-0.5	1	-12	11	4.8
COc1ccccc1NS(=O)(=O)c1ccc(C(=O)N2CCCC(C(F)(F)F)C2)cc1 (stereo unspecified)	-0.3	x	x	-3.2	-2	-7	x	2.2
CCOC(=O)C1CCCN(CC(=O)NC2=Nc3ccccc3N=C(C)C2c2ccccc2)C1 (stereo unspecified)	0.2	3	-1.9	3.7	19	9	5	6.7
O=C(CSc1nc2[nH]c(=O)cc(O)c2s1)Nc1nccs1	1.5	x	x	-3.1	5	1	x	7.3
NC(=O)C1(N2CCCCC2)CCN(C(=O)Nc2ccccc2C(F)(F)F)CC1	-0.2	1	-0.3	-2.1	x	-2	-1	-0.7
Cc1cc(OCC(=O)Nc2ccc(CN3CCCCC3)cc2)ccc1Cl	-0.4	-13	u	-6.9	4	x	-3	4.1
O=C(CNC(=O)C12CC3CC(CC(C3)C1)C2)Nc1ncccc1O	-0.2	x	x	-0.9	-7	3	x	6.3
COc1ccccc1/C=C/C(=O)NCC(=O)N/N=C(\CCC(=O)O)c1ccccc1	-1.3	-18	4.4	-8.9	1	-1	5	x
COc1ccc(S(=O)(=O)NNC(=O)C2Cc3c(ccc4ccccc34)O2)cc1 (stereo unspecified)	0.1	-7	-2.8	-0.9	0	8	10	1.5
CCC1CCCCN1CCCNC(=O)CSc1nc2nc(C)c(Cc3ccccc3Cl)c(C)n2n1 (stereo unspecified)	-0.3	31	0.0	-9.6	-1	-2	0	1.2
C=C(C)Cn1c(=O)c(NC(=O)c2ccccc2)c2n(c1=S)CCC2	-0.1	2	7.5	2.8	2	x	-16	0.0
O=C(OCC(=O)N1CCCCC1)c1ccc2ccccc2n1	-0.5	x	x	-4.2	-1	-1	x	-2.1
CCCOc1ccc2ccccc2c1/C=C1\SC(=O)NC1=O	0.1	12	-2.4	2.9	9	14	45	0.7
Cc1nn(-c2ccccc2)c(C)c1/C=N/n1cnnc1	-0.1	-5	u	5.0	-2	-1	10	x
O=C(COC(=O)c1ccc2c(c1)OCCO2)NCCC1=CCCCC1	0.4	-2	-1.8	-0.6	7	-4	1	0.3
O=C(O)c1cccc(Nc2nc(C(F)(F)F)nc3ccccc23)c1	1.1	-1	0.3	-0.7	-13	x	11	5.5
O=C(CN1CCN(S(=O)(=O)c2ccc(Br)cc2)CC1)N/N=C/c1ccccc1C(=O)O	2.7	6	-2.0	-4.8	3	-3	-15	x
COc1ccc(-c2nnc(SCc3cc(C)cc(C)c3)o2)cc1	-0.8	4	-4.0	5.2	-11	-2	-3	4.4
CCOC(=O)C1=C(C)NC(SC)=NC1c1ccccc1 (stereo unspecified)	-0.5	8	-7.5	-1.5	0	-5	-1	4.3
O=C(CN1CCN(c2ccc(Cl)cc2)CC1)Nc1cccc(F)c1	0.3	6	0.8	0.0	-9	-1	17	3.1
CCC(=O)NC(=S)NNC(=O)COc1ccc(Br)cc1	-0.5	-14	-0.4	-2.5	4	10	-31	1.3
COc1cccc(NC(=O)C2CC2(c2cccc(OC)c2)c2cccc(OC)c2)c1 (stereo unspecified)	0.1	28	-0.5	-2.0	0	-1	-6	-1.1
CCOC(=O)c1cnc(-n2cc(C)cn2)nc1NCc1ccc2c(c1)OCO2	-0.8	29	-0.1	-0.5	-16	12	2	-1.1
CCOc1cc(N2CCOCC2)c(OCC)cc1NS(=O)(=O)c1cc(NC(C)=O)ccc1OC	0.1	0	-3.2	-0.6	-4	-3	5	2.6
CCOC(=O)c1cnn(-c2ncnc3sc(C)c(C)c23)c1N	0.9	-4	-3.8	9.5	1	-9	0	3.7
C[C@@H](C(=O)N1CCN(C(=O)OC(C)(C)C)CC1)n1cc(CCCN=C(NC(=O)OC(C)(C)C)NC(=O)OC(C)(C)C)nn1	-0.4	13	-4.1	5.5	-4	-1	-1	2.2
O=C(Nc1ccc(Cc2ccncc2)cc1)c1ccco1	0.2	-4	5.1	-8.7	9	-4	2	4.1
O=C(CN1C(=O)CSC1=O)NCc1ccccc1	0.6	2	-2.1	0.1	2	1	-5	1.7
O=C(C1CCN(S(=O)(=O)c2cnc[nH]2)CC1)N1CCn2c1nc1ccccc12	-0.1	6	1.4	4.8	-11	-4	-13	5.5
CC(=O)c1sc(-c2ccccc2)cc1N	-1.9	-37	1.4	5.9	8	0	-27	-19
CCCC(=O)N1CCc2cc(OC)c(OC)cc2C1COc1ccccc1OC (stereo unspecified)	-1.1	21	-1.0	3.1	-4	-4	-1	1.8
Cc1c(O)c(S(=O)(=O)c2ccccc2)c(=O)n(-c2ccccc2)c1-c1ccccc1	-0.6	-23	1.3	0.2	13	-4	41	0.7
COc1cc(/C=N/Nc2ccccc2[N+](=O)[O-])cc(OC)c1O	-0.1	4	u	-10	1	4	0	x
O=C(COc1ccc2ccc(=O)oc2c1)NCc1ccccn1	-1.1	-7	u	-8.6	-2	-1	21	-24
COc1ccc(N2CCN(C(=O)Cn3c(=O)c4cccn4c4cccnc43)CC2)cc1	-0.8	-5	8.9	1.3	-15	-2	5	1.5
CC1=CCC(C(=O)O)C(C(=O)O)C1 (stereo unspecified)	1.1	-5	-0.3	-2.4	5	-12	5	6.6
CCN(C(=O)CCS(=O)(=O)c1ccc2c(c1)oc(=O)n2C)c1ccc(OC)cc1	0.3	0	4.2	-4.7	-12	-6	3	1.8
COc1ccc(CNC(=O)CCn2c(=O)oc3ccccc32)c(OC)c1	-0.4	-10	-1.9	-2.4	-5	-6	2	3.7
CCC(=O)Nc1cccc2ccccc12	0.4	-6	u	3.2	-2	3	7	-0.5
O=C(CSc1nnc(-c2cccs2)o1)OC1CCCCC1	0.3	-2	-3.4	-0.5	-8	-5	-11	0.2
CSc1ccc(CNC2CC2)cc1	0.3	10	u	-2.1	-8	6	0	-1.2
COC(=O)C1=NNC(C(=O)c2ccco2)C1c1ccc(OC)cc1 (stereo unspecified)	0.0	-7	5.7	1.4	7	-7	-3	-0.4
O=C(CCn1c(=S)oc2ccccc21)Nc1ccc(F)cc1	0.9	21	4.4	2.2	-6	-3	-6	0.6
Cc1nn(CCOc2ccccc2)c(=O)n1-c1c(F)cccc1F	-1.3	1	u	2.6	-2	-4	-11	-1.0
CN1CCN(CCOc2ccc(-c3ccccc3)cc2)CC1	0.3	43	2.2	7.2	7	4	-36	4.6
O=C(CN1C(=O)C2CC=CCC2C1=O)NC1CCCCC1 (stereo unspecified)	0.0	1	0.9	-0.4	2	1	-11	2.0
Cc1cccc(NC(=O)CSc2nc3c(oc4ccccc43)c(=O)n2-c2ccccc2)c1	-0.1	32	0.9	-5.8	3	33	24	4.6
COc1ccc(CN2C(=O)c3ccccc3C2=O)cc1C(=O)OC(C)C(=O)NC(N)=O (stereo unspecified)	0.0	-23	0.7	-1.8	-12	5	-8	3.9
S=C(NCc1ccncc1)NC1CCCCC1	0.3	-24	3.1	-1.8	-2	3	2	0.7
c1ccc(N2CCN(c3cnc4ccccc4n3)CC2)cc1	-2.9	3	-4.4	2.7	-1	-1	2	-97
CC(C)(C)Nc1nc(SCC(=O)Nc2ccccc2Cl)nc(N2CCOCC2)n1	0.0	21	-3.2	-1.1	8	x	-4	0.7
COc1cccc(CNC(=O)Cn2nc(C)c([N+](=O)[O-])c2C)c1	-0.5	-9	1.5	-3.3	7	0	-4	0.2
CN(C1CCCC1)C1CCN(C(=O)CNC(=O)/C=C/c2ccc(F)cc2)CC1	0.1	12	0.7	-4.1	-7	x	28	1.1
CC(C)(O)C#Cc1ccc(CN2CCN(CCc3ccccc3)C(CCO)C2)s1 (stereo unspecified)	0.6	3	1.3	5.9	2	-13	-3	0.7
O=C(COC(=O)c1cnccn1)Nc1ccc(Cl)cc1C(F)(F)F	-0.3	-11	1.1	x	1	-7	-1	5.3
Cc1ccc(CSc2nnc(C(F)(F)F)n2Cc2ccc(F)cc2)cc1	1.2	34	-4.5	-4.6	-31	-11	34	5.0
CC(C)Sc1nnc(NC(=O)C2CC2)s1	0.8	29	1.6	1.3	-15	-5	-4	5.1
CSc1ncccc1C(=O)Nc1cc(Cl)ccc1N1CCOCC1	0.0	x	x	-2.1	0	10	x	2.8

Screens as filed in PubChem.
